Calb FLC: affects C. albicans growth with fluconazole | hit rate 0.57% among 300,000 | C. albicans CaCi-2 (fluconazole-resistant clinical isolate) + fluconazole, Alamar Blue growth, 48 h | growth inhibition, % (no concentration beside the values);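 active = most replicates above 75%; inconclusive = exactly half above 75%; inactive = most below 75%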;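 note: all wells also contain fluconazole at 8 µg/ml as a sub-toxic cotreatment; 0% = median of DMSO wells and 100% = median of geldanamycin control wells; wells of about 8 µL received 7.5 nL stock; the first replicate is given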
Beta cell apopt: blocks beta cell apoptosis. INS-1E cytokine-induced death, ATP luminescence, 48 h; percent of positive-control rescue, neutral wells zero. protection from apoptosis, % (concentration not given with the values). AID 435005. hit rate 0.8% among 300,000;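 active = all replicates at 75% or more, or half of them and the mean; inconclusive = half reach 75% but not the mean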;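 note: 0% = cytokine-treated negative control wells and 100% = positive control rescue; higher means more ATP so stronger rescue from cytokine killing; wells of about 40 µL received 100 nL stock; the first replicate is given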
T cruzi repl: blocks replication of Trypanosoma cruzi; T. cruzi beta-gal in NIH3T3, luminescence, 90 h; inhibition, % (no concentration beside the values); hit rate 1.4% among 300,000; AID 1885;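 active = mean inhibition across valid replicates above about 55%, limit read from the data; inconclusive = mean below that limit but half or more replicates reach it; inactive = mean below it, under half of replicates reach it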;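 note: signal also drops with host cell toxicity which is not excluded here; 0% = plate median of DMSO wells and 100% = zero luminescence signal; higher percent means less beta-gal luminescence so fewer parasites; stock transfer was 50 nL into about 50 µL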
FGF22 binding: shifts melting point of recombinant human FGF22; Q9HCT0; recombinant FGF22 thermal shift, SYPRO orange fluorescence; percent of sucrose octasulfate shift, DMSO zero; calls only at 9.99 µM; hit rate 1.5% among 340,000;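 active = melting point raised past a set limit in the mean and every replicate; inconclusive = no clear call; three in four hits are not shown here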
Target sequence (Q9HCT0 whole entry, looked up): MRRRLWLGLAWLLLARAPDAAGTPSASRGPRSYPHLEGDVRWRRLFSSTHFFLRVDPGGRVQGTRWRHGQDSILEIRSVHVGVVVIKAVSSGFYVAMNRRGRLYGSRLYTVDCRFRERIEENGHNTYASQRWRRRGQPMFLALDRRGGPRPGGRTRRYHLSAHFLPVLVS
rRNA inh HTS: inhibitors of bacterial rRNA selective over humanized ribosomes; AID 720706; GFP signal change (wild-type ribosome), % (concentration not given with the values); E. coli WT GFP vs humanized-ribosome RFP mutants, fluorescence, 24 h; active compounds read low; DMSO median 0, no signal -100; hit rate 1.6% among 350,000;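 active = significant combined selectivity score with lowered wild-type GFP, culture density cut under 30%, mutant RFP and density less affected; inactive = any of these conditions unmet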; note: one replicate is shown; some compounds called inactive have numbers as strong as hits
ALR inh: inhibitors of human sulfhydryl oxidase ALR; purified ALR, DTT oxidation, H2O2 HRP-luminol luminescence; hit rate 3.8% among 290,000; inhibition, % (concentration not given with the values); P55789;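 active = mean and each replicate at 75% or more; inconclusive = only one of the two met; inactive = neither met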;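 note: stock transfer was 7.5 nL into about 7.5 µL; 0% = neutral wells and 100% = wells with inactivated enzyme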
Target sequence (P55789 whole entry, looked up): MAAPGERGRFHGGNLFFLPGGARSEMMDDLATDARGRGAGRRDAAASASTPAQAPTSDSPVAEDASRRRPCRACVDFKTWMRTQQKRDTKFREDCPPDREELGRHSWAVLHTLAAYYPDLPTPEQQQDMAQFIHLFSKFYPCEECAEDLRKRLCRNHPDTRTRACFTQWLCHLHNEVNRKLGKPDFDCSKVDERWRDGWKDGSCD
RanGTP-Impb inh: disruptors of Ran-importin-beta complex formation – biochemical, FRET, CFP-Ran, YFP-importin-beta, homogeneous, primary screen | inhibition, % (no concentration beside the values) | cell-free CFP-Ran/YFP-importin-beta FRET ratio | hit rate 1.1% among 300,000;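 active = most replicates above 15%; inconclusive = exactly half above 15%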;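 note: 0% = DMSO wells and 100% = Ran loaded with GDP instead of GTP; wells of about 40 µL received 100 nL stock; the first replicate is given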
AF4-AF9 inh: blocks AF4 peptide binding to human AF9; AlphaScreen, biotin-AF4 peptide binding to FLAG-AF9; inhibition, % at 10 µM; hit rate 0.47% among 350,000; P42568;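 active = every replicate reaching a set inhibition limit, whatever the replicate mean, cut at about 25% in these data; inconclusive = mean inhibition reaches that limit but some replicates miss it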;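 note: 0% = plate neutral control median and 100% = total signal loss; the record names both 10 and 1 µM as test concentration; the first replicate is given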
Target sequence (P42568 whole entry, looked up): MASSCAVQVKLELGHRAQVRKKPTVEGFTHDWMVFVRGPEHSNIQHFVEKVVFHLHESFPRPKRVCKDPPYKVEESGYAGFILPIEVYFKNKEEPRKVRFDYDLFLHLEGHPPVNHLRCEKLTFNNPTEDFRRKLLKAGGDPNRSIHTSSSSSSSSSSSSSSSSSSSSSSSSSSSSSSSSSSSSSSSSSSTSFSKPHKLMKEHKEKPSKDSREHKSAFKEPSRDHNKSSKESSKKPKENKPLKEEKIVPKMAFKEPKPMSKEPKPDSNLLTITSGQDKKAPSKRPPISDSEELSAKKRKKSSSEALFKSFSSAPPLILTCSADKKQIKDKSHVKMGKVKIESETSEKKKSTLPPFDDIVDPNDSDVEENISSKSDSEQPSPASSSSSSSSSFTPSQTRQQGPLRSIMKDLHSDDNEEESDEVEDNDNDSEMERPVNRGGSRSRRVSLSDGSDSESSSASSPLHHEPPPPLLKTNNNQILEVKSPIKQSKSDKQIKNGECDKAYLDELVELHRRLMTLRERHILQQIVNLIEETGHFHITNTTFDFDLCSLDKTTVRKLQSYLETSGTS
rRNA inh HTS OD600: also measured in rRNA inh HTS; calls as there; OD600 change, %; measured here: OD600 growth;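 optical density of the mix in the first replicate; 0 = DMSO median and -100 = no signal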
rRNA inh HTS RFP: also measured in rRNA inh HTS; calls as there; RFP signal change, %; measured here: RFP humanized mutant strains;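 first replicate; 0 = DMSO median and -100 = no signal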
Starred values were filed as active, the others as inactive; i = inactive; ? = inconclusive; . = no result given. The list is partial; count on the stated rates, not on these rows.

SMILES | Calb FLC | Beta cell apopt | T cruzi repl | FGF22 binding | rRNA inh HTS | rRNA inh HTS OD600 | rRNA inh HTS RFP | ALR inh | RanGTP-Impb inh | AF4-AF9 inh
c1ccc2c(CCNc3ncnc4nc[nH]c34)c[nH]c2c1 | 4 | 7 | -8 | i | -9 | -8 | -3.3 | 98* | ? | -1.8
CC[C@@]12C(=O)N(c3cccc(C)c3)C(=O)N1[C@H](c1ccc(OC)cc1)[C@@H]1C(=O)N(C(C)(C)C)C(=O)[C@@H]12 | 4 | -7 | -3 | . | . | . | . | -3 | 8.9 | .
O=C(CCn1c(=S)oc2ccccc21)Nc1cc([N+](=O)[O-])ccc1F | 3 | 9 | -6 | i | 8 | 10 | 2.3 | 2 | 1.0 | -0.9
CC1CCCC(C)N1CCCNC(=O)C1CCCN(c2ncnc3c2nc2n3CCCCC2)C1 (stereo not drawn) | 16 | 5 | 5 | i | 2 | 7 | 2.2 | 2 | 2.5 | -5.0
C[C@H](NC(=O)c1ccccc1Cl)C(=O)OCc1cn2cc(Cl)ccc2n1 | . | -1 | -8 | i | 1 | 9 | 0.4 | -7 | -1.9 | -0.4
COc1ccc(S(=O)(=O)N2CCN(C(=O)NCc3ccc(OC)c(OC)c3)CC2)cc1 | -4 | -3 | -1 | i | 3 | 3 | 2.0 | -5 | -1.1 | 0.9
COC(=O)c1ccccc1NC(=O)CN1C(=O)c2ccccc2C1=O | -2 | -6 | -6 | i | 21 | 9 | 1.6 | -10 | -1.7 | 2.6
COCCNC(=O)C12CC3CC(C1)CC(c1ccccc1)(C3)C2 | 4 | 2 | 12 | i | -8 | -21 | -3.9 | -12 | 1.5 | -15
Cc1nnc(-c2cnn(C)c2N)n1Cc1ccc2c(c1)OCO2 | 10 | -5 | -1 | i | 0 | -2 | -1.5 | . | 0.6 | 0.2
Cc1cc(S(=O)(=O)NC2CCCCC2)ccc1OCC(=O)NCC1CCCO1 (stereo not drawn) | -14 | -8 | 4 | i | 6 | 1 | -0.9 | 13 | ? | -2.5
CN(C)C1CCN(C(=O)c2cccc(OC3CCN(S(=O)(=O)N(C)C)CC3)c2)C1 (stereo not drawn) | -21 | -1 | 3 | i | 5 | 3 | 1.8 | -22 | -6.6 | 0.5
O=C(Nc1cccc(S(=O)(=O)N2CCCCC2)c1)c1ccc2c(c1)OCO2 | -7 | 4 | 2 | i | -17 | -12 | -7.0 | -10 | -0.1 | -14
CC/C(=N\NC(=S)Nc1ccc(OC)cc1)c1ccc(OC(F)F)cc1 | 3 | 6 | 22 | . | . | . | . | -8 | -2.9 | .
S=c1[nH]nc([C@@H]2C[C@H]2c2ccccc2)n1-c1ccccc1 | 18 | 8 | -6 | . | . | . | . | 42 | 3.2 | .
O=c1cc(NCc2ccco2)[nH]c(=O)n1-c1ccc(Br)cc1 | -13 | . | 1 | . | . | . | . | 8 | 6.2 | .
CCN(CC)S(=O)(=O)c1ccc(NC(=O)CCC2CCCCC2)cc1 | 1 | -11 | 8 | . | . | . | . | 1 | -4.2 | .
CCOc1ccc(NC(=S)NN2C(C)CCCC2C)cc1 (stereo not drawn) | -7 | 1 | -18 | . | . | . | . | -7 | -1.2 | .
CCCCN(C)C1=CC2=CC(=C(C#N)C#N)CCC2CC1 (stereo not drawn) | ? | 2 | 27 | i | 87 | -5 | 12 | 23 | 92* | -0.9
O=C(Nc1ccc2oc(=O)ccc2c1)c1ccc(-c2ccc(Cl)cc2)o1 | 1 | 3 | 16 | . | . | . | . | 44 | -1.1 | .
Cc1ccc(NC(=O)c2ccc(F)cc2F)cc1 | -3 | 0 | -4 | i | 1 | 7 | -2.2 | -6 | -0.7 | .
COc1ccc(/C=C2\SC(=O)N(CCNC(=O)C3=COCCO3)C2=O)cc1 | -11 | . | 8 | i | 1 | -14 | -5.7 | -1 | 0.8 | -13
CCCOC(=O)/C(=C\c1ccc([N+](=O)[O-])o1)NC(=O)c1ccccc1 | 89* | -1 | 51 | . | . | . | . | -9 | 9.9 | .
O=C1NCCCC1C(=O)N/N=C/c1ccc(Cl)cc1 (stereo not drawn) | 10 | -4 | -4 | i | 16 | -2 | -0.6 | -7 | 3.5 | .
Cc1sc(-n2c(C)cc(/C=C3\SC(=S)NC3=O)c2C)c(C#N)c1C | 46 | -6 | -40 | i | -8 | -16 | 8.0 | -54 | 10 | 9.0
Cc1ccc(CSc2ncnc3c2cnn3Cc2ccccc2)cc1C | -9 | -3 | 22 | . | . | . | . | -12 | 0.2 | .
More entries follow:
SMILES | Calb FLC | Beta cell apopt | T cruzi repl | FGF22 binding | rRNA inh HTS | rRNA inh HTS OD600 | rRNA inh HTS RFP | ALR inh | RanGTP-Impb inh | AF4-AF9 inh
Cc1ccccc1C(=O)NC1CCN(CC(=O)NCc2ccc(F)cc2)CC1 | -3 | -1 | -4 | i | 10 | 7 | 1.0 | -13 | -2.0 | -0.7
CC(=O)N1CCc2cc(S(=O)(=O)NCCC(=O)NCCc3ccccc3)ccc21 | 0 | 6 | 6 | . | . | . | . | . | 1.3 | .
COC(=O)c1ccccc1C(=O)N1CCCC(CCC(=O)NCc2ccc(F)c(F)c2)C1 (stereo not drawn) | 2 | -4 | 16 | i | 2 | 8 | 1.9 | -1 | 0.3 | -0.5
O=C(Nc1ccc(Cl)c(C(F)(F)F)c1)[C@@H]1CC=C[C@@H]2CCN(Cc3ccccc3)C(=O)[C@@H]21 | 3 | 0 | 40 | i | 3 | 7 | -4.0 | -12 | -1.9 | .
CCC(NS(=O)(=O)c1ccc(C)cc1)C(=O)N1CCN(c2ccccn2)CC1 (stereo not drawn) | -8 | 0 | -7 | i | 4 | 11 | -1.2 | 1 | 1.1 | -6.4
CCN(CC(=O)Nc1ccc2c(c1)OCCO2)Cc1cc(=O)n2ccsc2n1 | ? | 2 | 1 | i | 18 | 10 | 3.5 | -7 | 3.5 | 1.8
Cc1ccnc(NC(=O)c2ccc(Cl)c([N+](=O)[O-])c2)c1 | -12 | -6 | -1 | i | 7 | 5 | 1.4 | 12 | -1.5 | -2.7
CCc1cccc(C)c1Nc1nc2ccccc2n2cnnc12 | -1 | 0 | 3 | i | 11 | 13 | 2.0 | -17 | -2.1 | -0.8
CSC1=C(C#N)C(c2ccc(C)cc2)C2=C(CCCC2=O)N1 (stereo not drawn) | 7 | -8 | -17 | . | . | . | . | -2 | -2.5 | .
Cc1ccc(/C=N/NC(=O)CSc2nc3ccccc3c(=O)n2-c2ccccc2C)s1 | -3 | 6 | -1 | . | . | . | . | -1 | 0.2 | .
CNC(=O)c1ccsc1NC(=O)c1ccc(Cl)s1 | 46 | -6 | 5 | i | -28* | -38* | -2.8* | 48 | 0.7 | -2.8
COc1ccc(NC(=O)CSc2nnnn2C)cc1 | 10 | -1 | -5 | i | 20 | 7 | 0.5 | -6 | 2.0 | -1.0
CC(C)[C@H](NC(=O)[C@H](Cc1ccccc1)n1c(=O)[nH]c2ccccc2c1=O)C(=O)N[C@@H](Cc1ccccc1)C(=O)O | -8 | -1 | -3 | i | . | . | . | . | 4.2 | -5.7
Cc1cc(O)c(/C=N/Nc2ccc(Cl)cc2)c(=O)o1 | 87* | 1 | 22 | . | . | . | . | 98* | -2.7 | .
O=C(c1ccc2nccnc2c1)N1CCCC(N2CCN(c3ccc(F)cc3)CC2)C1 (stereo not drawn) | 12 | -6 | -8 | i | 1 | 12 | 0.0 | 59 | 2.4 | 4.8
CCCOC(=O)c1ccc(NC(=O)c2cc(=O)[nH]c3ccccc23)cc1 | -6 | 3 | -7 | i | 6 | -14 | 1.0 | 1 | -2.1 | -1.6
Cc1[nH]c2ccccc2c1C(c1ccccn1)c1c(C)[nH]c2ccccc12 | 2 | 12 | 30 | . | . | . | . | 20 | -3.5 | .
Cc1ccc(N)c2c1OCCC2=O | -3 | 1 | 1 | . | . | . | . | -13 | 1.4 | .
COc1cccc(CNC(=O)c2c(C)nn(-c3ccccc3)c2C)c1 | 11 | 8 | -3 | i | 13 | 0 | 1.1 | -4 | 3.8 | -3.4
CC(C)COCC1CC2(CC(C)C(=O)CC2=O)C(=O)O1 (stereo not drawn) | -6 | -1 | -5 | . | . | . | . | 0 | 0.2 | .
Cc1cc(C)cc(CC2CC(=O)N(c3nc(C)cc(C)n3)C2=O)c1 (stereo not drawn) | 27 | -6 | -7 | . | . | . | . | . | -5.6 | .
COC(=O)c1ccc(CNC(=O)COC(=O)/C=C/c2cc(OC)c(OC)c(OC)c2)cc1 | . | -3 | . | i | 6 | 11 | -1.1 | . | . | -2.4
C/C(NCCCn1ccnc1)=C(\C#N)C(N)=O | -5 | . | -3 | . | . | . | . | 1 | 2.5 | .
Cc1ccc(NC(=O)CC(=O)Nc2ccc(C)c(C)c2)cc1C | -3 | -6 | -5 | i | -1 | 18 | -3.2 | 3 | -1.4 | 3.2
CC(C)(C)OC(=O)NCC(=O)Oc1cc2oc(=O)cc(-c3ccccc3)c2cc1Cl | 50 | -6 | -3 | i | . | . | . | 9 | -0.4 | 5.2
Later entries
SMILES | Calb FLC | Beta cell apopt | T cruzi repl | FGF22 binding | rRNA inh HTS | rRNA inh HTS OD600 | rRNA inh HTS RFP | ALR inh | RanGTP-Impb inh | AF4-AF9 inh
CCN(CC)CC(O)COc1ccc2c(c1)c(C(C)=O)c(C)n2-c1ccccc1 (stereo not drawn) | 0 | 4 | -17 | . | . | . | . | -1 | ? | .
O=C(CNC(=O)c1ccco1)NCC(=O)OCc1c(F)cccc1Cl | 3 | 2 | -3 | i | 18 | 17 | 5.6 | -3 | -2.6 | -1.3
COc1cc(NCCCCCCCN)c2ncccc2c1 | -8 | 13 | 47 | . | . | . | . | 96* | 1.5 | .
O=C(O)CCC(=O)NNC(=O)COc1ccc(Cl)cc1Cl | -1 | . | -2 | i | 15 | 17 | 3.1 | 0 | -2.6 | -3.1
COc1ccc(NC2=C(C(C)=O)C(c3ccc4c(c3)OCO4)C(C(C)=O)C(C)(O)C2)cc1 (stereo not drawn) | -12 | . | 2 | . | . | . | . | -3 | -1.1 | .
CC(OC(=O)C1CSC2(C)CCC(=O)N12)C(=O)Nc1ccc(F)cc1 (stereo not drawn) | . | -3 | . | i | 9 | 9 | -3.1 | -4 | . | 0.1
N#Cc1ccc(C(=O)Nn2cnnc2)cc1 | -3 | -2 | -4 | i | 16 | 19 | -1.0 | -11 | -2.6 | 0.4
O=C(CNC(=O)c1ccc(-c2ccccc2)cc1)OCc1c(Cl)cccc1Cl | 0 | 11 | 17 | . | . | . | . | -16 | -1.9 | .
COc1cccc(-n2c(SCC(=O)Nc3nc4ccccc4s3)nc3ccccc3c2=O)c1 | -3 | 6 | 8 | i | 13 | -4 | -1.6 | . | 8.5 | -0.5
O=C(C1CCN(S(=O)(=O)c2ccc(F)cc2)CC1)N1CCOCC1 | -6 | 4 | 4 | . | . | . | . | -4 | -1.3 | .

Assay outcomes (PubChem BioAssay)
